Compound activity as filed in PubChem.
Vaccinia inh: blocks a specific stage of Vaccinia orthopoxvirus infection; 89,000 tested, 0.01% active; Vaccinia-infected cells, mCherry/Venus stage reporter fluorescence; hits give low values; some inactives read as strong as hits; activity change (mCherry), % (concentration not given with the values);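 active means mCherry past -33% and 40 or more points under the early reporter, replicates agreeing; inconclusive means past -33% without that gap or agreement; tested in A549 cells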;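 further: scaled between vehicle wells and reference inhibitor wells; 23 nL library stock went into each well; one replicate is shown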
Vaccinia inh Venus: further read-out of Vaccinia inh, marked with its call; activity change (Venus), %; measured here: Venus reporter, other viral stage;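 negative = less Venus signal; first of two replicates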
* marks the source's active call; other numbers are inactive results; ? = inconclusive; . = not tested or not shown; & = joins results of further samples.

structure	Vaccinia inh Venus	Vaccinia inh
C[C@@H]1CN([C@H](C)CO)C(=O)c2cc(C#CC3CC3)cnc2O[C@@H]1CN(C)Cc1ccncc1	4	15
CNC[C@@H]1Oc2ccc(NC(=O)Nc3cccc4ccccc34)cc2C(=O)N([C@@H](C)CO)C[C@H]1C	2	9
C[C@@H]1CN([C@H](C)CO)C(=O)c2cccc(NC(=O)Nc3ccc4c(c3)OCO4)c2O[C@H]1CN(C)S(=O)(=O)c1ccc(Cl)cc1	-1	11
COc1ccc(S(=O)(=O)N(C)C[C@@H]2OCc3ccccc3-c3ccccc3C(=O)N([C@@H](C)CO)C[C@@H]2C)cc1	.	?
C[C@@H]1CN([C@@H](C)CO)C(=O)Cc2cc(NC(=O)Cc3ccccc3)ccc2O[C@H]1CN(C)CC1CCCCC1	.	?
COC(=O)C[C@H]1C[C@@H]2c3cc(N(C)C)ccc3O[C@@H]2[C@@H](CO)O1	26	20
CC(C)(C)[C@@H]1C=C(C(=O)N2CCCCCCC2)O[C@H](OCCCCO)C1	8	13
C[C@@H]1CN([C@@H](C)CO)C(=O)Cc2cc(NC(=O)Nc3ccc4c(c3)OCO4)ccc2O[C@@H]1CN(C)C(=O)Nc1ccc2c(c1)OCO2	11	18
COc1ccc(C#Cc2ccc([C@H]3[C@@H](CO)N4C(=O)CN(C(=O)c5ccc(F)cc5)C[C@H]34)cc2)cc1	.	?
O=C(C[C@H]1CC[C@@H]2[C@H](COC[C@@H](O)CN2C(=O)Nc2ccc(Cl)c(Cl)c2)O1)NCc1ccc(F)cc1	.	?
Cc1ccc(S(=O)(=O)N(C)C[C@@H]2OCCCC[C@@H](C)Oc3ccc(NC(=O)c4ccccc4)cc3C(=O)N([C@@H](C)CO)C[C@@H]2C)cc1	.	?
COc1ccc(NC(=O)N[C@@H]2CC[C@@H](CCNC(=O)c3cc(Cl)cc(Cl)c3)O[C@H]2CO)cc1	1	-3
Cc1ccc(S(=O)(=O)Nc2ccc3c(c2)C(=O)N([C@H](C)CO)C[C@@H](C)[C@@H](CN(C)CC2CCCCC2)O3)cc1	0	-15
O=C(NCC(F)(F)F)[C@@H]1[C@@H](CO)[C@@H]2Cn3c(cccc3=O)[C@@H]2N1Cc1cccc(F)c1	-1	3
O=C(c1cnccn1)N1CC(=O)N2[C@H](C1)[C@H](c1ccc(C#CCC3CCCC3)cc1)[C@@H]2CO	-18	-18
O=C(C[C@H]1C[C@H]2c3cc(NC(=O)CC4CC4)ccc3O[C@H]2[C@H](CO)O1)NCC(F)(F)F	9	10
Cc1ccc(S(=O)(=O)Nc2ccc3c(c2)C(=O)N([C@H](C)CO)C[C@H](C)[C@@H](CN(C)CC2CC2)OCCCC[C@@H](C)O3)cc1	7	2
CC(C)NC(=O)N(C)C[C@H]1Oc2ncc(C#Cc3ccccc3F)cc2C(=O)N([C@H](C)CO)C[C@@H]1C	-6	-11
CCCC#Cc1ccc([C@H]2[C@@H](CO)N3C(=O)CN(C(=O)c4cccnc4)C[C@@H]23)cc1	8	8
C[C@@H]1CN([C@@H](C)CO)C(=O)c2cc(NS(=O)(=O)c3cn(C)cn3)ccc2O[C@@H](C)CCCCO[C@H]1CN(C)C(=O)CCC(F)(F)F	10	18
C[C@@H]1CN([C@@H](C)CO)C(=O)c2cc(NC(=O)CCC(F)(F)F)ccc2O[C@@H]1CN(C)S(=O)(=O)c1cn(C)cn1	6	-2
CC(C)c1ccc(-n2nnnc2SCc2nc(N)nc(N)n2)cc1	6	8
CC(C)NC(=O)N1[C@H](CO)[C@@H]2c3ccccc3NC[C@@H]21	8	10
CO[C@H]1CN(C)C(=O)c2cc(NS(C)(=O)=O)ccc2OC[C@H](C)NC[C@@H]1C	3	12
C[C@@H]1CN([C@@H](C)CO)C(=O)Cc2cc(NS(=O)(=O)c3ccccc3)ccc2O[C@@H]1CN(C)S(=O)(=O)c1cn(C)cn1	-2	2
O=C(NC1CCCCC1)N1CC2(C1)[C@H](c1ccccc1)[C@@H](CO)N2CC1CC1	4	1
C[C@@H]1CN([C@H](C)CO)C(=O)c2cc(NC(=O)Nc3cccc4ccccc34)ccc2O[C@@H](C)CCCCO[C@H]1CN(C)S(=O)(=O)c1cn(C)cn1	8	17
CN(C)C(=O)C[C@H]1C[C@H]2c3cc(NC(=O)CC4CC4)ccc3O[C@H]2[C@@H](CO)O1	6	-9
COc1ccc(NC(=O)N(C)C[C@@H]2Oc3ccc(NC(=O)Nc4ccc(F)cc4)cc3CC(=O)N([C@@H](C)CO)C[C@@H]2C)cc1	9	9
CO[C@@H](CN(C)C(=O)C1CCOCC1)[C@H](C)CN(C(=O)Nc1ccc(F)cc1)[C@H](C)CO	10	14
O=C(C1CC1)N1C[C@@H]2N[C@H](C1)[C@@H]2c1ccc(-c2ccncc2)cc1	.	?
O=C(C[C@H]1CC[C@@H]2[C@H](COC[C@@H](O)CN2Cc2ccc(F)cc2)O1)NCc1ccccc1Cl	-1	-19

Five entries drawn at random from those above:
structure	Vaccinia inh Venus	Vaccinia inh
C[C@@H]1CN([C@H](C)CO)C(=O)c2cc(NC(=O)Nc3cccc4ccccc34)ccc2O[C@@H](C)CCCCO[C@H]1CN(C)S(=O)(=O)c1cn(C)cn1	8	17
C[C@@H]1CN([C@@H](C)CO)C(=O)Cc2cc(NS(=O)(=O)c3ccccc3)ccc2O[C@@H]1CN(C)S(=O)(=O)c1cn(C)cn1	-2	2
CN(C)C(=O)C[C@H]1C[C@H]2c3cc(NC(=O)CC4CC4)ccc3O[C@H]2[C@@H](CO)O1	6	-9
O=C(C1CC1)N1C[C@@H]2N[C@H](C1)[C@@H]2c1ccc(-c2ccncc2)cc1	.	?
O=C(NC1CCCCC1)N1CC2(C1)[C@H](c1ccccc1)[C@@H](CO)N2CC1CC1	4	1

Further entries:
structure	Vaccinia inh Venus	Vaccinia inh
CN1C(=O)c2cc(NC(=O)C3CCCC3)ccc2OC[C@@H]2O[C@@H](CC(=O)Nc3ccccc3)CC[C@@H]21	-1	-16
Cc1noc(C)c1NC(=O)Nc1ccc2c(c1)C(=O)N([C@@H](C)CO)C[C@@H](C)[C@H](CN(C)Cc1ccncc1)OCCCC[C@@H](C)O2	5	5
C[C@@H]1CN([C@@H](C)CO)C(=O)CCCn2cc(nn2)CO[C@H]1CN(C)C(=O)Oc1ccccc1	9	10
COc1ccc(S(=O)(=O)Nc2cccc3c2O[C@@H](CN(C)Cc2ccccc2)[C@@H](C)CN([C@H](C)CO)C3=O)cc1	7	1
C/C=C/c1ccc([C@H]2[C@@H](CO)N(CC3CC3)C23CN(C(=O)COC)C3)cc1	1	-10
C[C@@H]1CN([C@H](C)CO)C(=O)c2cc(NS(=O)(=O)c3cn(C)cn3)ccc2O[C@@H]1CN(C)CC1CCCCC1	9	17
O=C(N[C@H]1CC[C@H](CCNC(=O)C2CCOCC2)O[C@@H]1CO)c1ccccn1	0	-1
Cc1noc(C)c1NC(=O)N(C)C[C@@H]1Oc2ccc(NC(=O)CCN3CCOCC3)cc2C(=O)N([C@H](C)CO)C[C@@H]1C	2	8
C[C@@H]1CN([C@@H](C)CO)C(=O)c2cc(NC(=O)CCCN(C)C)ccc2O[C@@H]1CN(C)CC1CCCCC1	7	12
CO[C@H]1CC[C@@H]2CCN(C)C(=O)C[C@@H](c3ccccc3)CN(C)C(=O)c3cccc(C#N)c3OC[C@H]1O2	-1	6
Cc1ccc(S(=O)(=O)N(C)C[C@@H]2OCCCC[C@H](C)Oc3ccc(NC(=O)Cc4ccccc4)cc3C(=O)N([C@@H](C)CO)C[C@H]2C)cc1	1	3
CN(C)CC(=O)N1[C@H](C#N)[C@H](c2ccc(-c3ccccc3F)cc2)[C@@H]1CO	-5	-8
CC(C)C#Cc1ccc2c(c1)O[C@@H](CN(C)Cc1ccccc1)[C@H](C)CN([C@@H](C)CO)S2(=O)=O	-27	-34
COc1ccc2c3c(n(C)c2c1)[C@H](CO)N(S(=O)(=O)c1cn(C)cn1)CC31CCN(C)CC1	-13	-15
COc1cccc(S(=O)(=O)N(C)C[C@H]2Oc3cc(C4=CCCC4)ccc3S(=O)(=O)N([C@H](C)CO)C[C@@H]2C)c1	7	8
COc1cccc(NC(=O)N[C@H]2CC[C@@H](CC(=O)N3CCCCC3)O[C@H]2CO)c1	14	10
C[C@H](CO)N1C[C@H](C)[C@H](CN(C)S(=O)(=O)c2ccc(Cl)cc2)Oc2ccc(NC(=O)NC3CCCCC3)cc2C1=O	-16	-22
C[C@H](CO)N1C[C@H](C)[C@@H](CN(C)CC2CC2)Oc2ccc(NC(=O)CCCCCC(=O)Nc3ccccc3N)cc2CC1=O	5	6
Cc1ccc(S(=O)(=O)N(C)C[C@@H]2Oc3ccc(NC(=O)Nc4ccc(C(F)(F)F)cc4)cc3CC(=O)N([C@@H](C)CO)C[C@@H]2C)cc1	.	?
CC(=O)N(C)C[C@@H]1Oc2ncc(C#Cc3ccccc3F)cc2C(=O)N([C@@H](C)CO)C[C@@H]1C	-3	5
CO[C@@H]1CN(C)C(=O)c2ccc(NC(=O)C3CC3)cc2OC[C@H](C)N(Cc2ccccc2)C[C@H]1C	-11	-17
O=C(c1cnccn1)N1CC(=O)N2[C@H](CO)[C@@H](c3ccc(/C=C/c4ccccc4)cc3)[C@@H]2C1	-15	-19
Cc1noc(C)c1S(=O)(=O)Nc1ccc2c(c1)C(=O)N([C@@H](C)CO)C[C@H](C)[C@@H](CN(C)C(=O)NC1CCCCC1)O2	4	7
COCC(=O)N1CC(=O)N2[C@H](CO)[C@H](c3ccc(C#CC4CCCCC4)cc3)[C@@H]2C1	-7	-9

Given with two lines to a compound: part of the list above.
Results follow in this order: Vaccinia inh Venus, Vaccinia inh
CO[C@@H]1CN(C)C(=O)c2ccc(NC(=O)C3CC3)cc2OC[C@H](C)N(Cc2ccccc2)C[C@H]1C
  -11, -17
O=C(c1cnccn1)N1CC(=O)N2[C@H](CO)[C@@H](c3ccc(/C=C/c4ccccc4)cc3)[C@@H]2C1
  -15, -19

The list goes on:
structure	Vaccinia inh Venus	Vaccinia inh
C[C@@H]1CN([C@H](C)CO)C(=O)c2cc(NS(=O)(=O)c3cn(C)cn3)ccc2O[C@@H](C)CCCCO[C@@H]1CN(C)S(=O)(=O)c1ccc(F)cc1	13	7
CO[C@H]1CN(C)C(=O)c2ccc(NC(=O)c3cc(C)on3)cc2OC[C@@H](C)NC[C@H]1C	6	0
CN1CCN(C(=O)C[C@H]2C=C[C@@H](NC(=O)Nc3ccccc3F)[C@H](CO)O2)CC1	0	-1
CNC[C@@H]1Oc2cc(C#Cc3ccccc3OC)ccc2S(=O)(=O)N([C@H](C)CO)C[C@H]1C	.	?
C[C@H](CO)N1C[C@H](C)[C@H](CN(C)C(=O)Cc2cccnc2)Oc2ncc(-c3ccccc3)cc2C1=O	6	1
CC(C)NC(=O)N(C)C[C@H]1Oc2cc(-c3ccncc3)ccc2S(=O)(=O)N([C@H](C)CO)C[C@@H]1C	4	13
C[C@H]1CN([C@@H](C)CO)C(=O)Cc2cc(NC(=O)Nc3ccc4c(c3)OCO4)ccc2O[C@@H]1CN(C)Cc1ccc(C(=O)O)cc1	19	22
CC(C)NC(=O)N1[C@@H]2CNC[C@H]1C2c1ccc(-c2cccc(C#N)c2)cc1 (stereo partly drawn)	3&-35	1&-22
C[C@@H]1CN([C@H](C)CO)C(=O)c2cc(NC(=O)C3CC3)ccc2O[C@H]1CN(C)C(=O)Nc1cccc2ccccc12	30	16
COc1ccc2c3c(n(C)c2c1)[C@H](CO)NCC31CCN(Cc2cc(F)ccc2F)CC1	.	?
N#C[C@@H]1[C@H](c2ccc(C3=CCCCC3)cc2)[C@@H](CO)N1C(=O)Cc1ccncc1	-1	-3
O=C(Cc1ccncc1)Nc1ccc2c(c1)[C@@H]1C[C@H](CC(=O)NC3CCCC3)O[C@@H](CO)[C@@H]1O2	3	3
O=C(C[C@H]1CC[C@@H]2[C@H](COC[C@H](O)CN2C(=O)c2cnccn2)O1)N1CCN(c2ccccc2)CC1	12	10
C[C@@H]1CN([C@@H](C)CO)C(=O)c2cc(NS(=O)(=O)c3cn(C)cn3)ccc2O[C@@H]1CN(C)Cc1ccc(Oc2ccccc2)cc1	7	12
C[C@@H]1CN([C@@H](C)CO)C(=O)c2cc(C#CC3CCCCC3)cnc2O[C@H]1CN(C)Cc1cncnc1	-9	-11
C[C@@H]1CN([C@H](C)CO)C(=O)c2cc(NS(=O)(=O)c3ccc(F)cc3)ccc2O[C@H]1CN(C)S(=O)(=O)c1ccc(Cl)cc1	10	-11
COCC(=O)N(C)C[C@@H]1Oc2ncc(-c3ccc(C)cc3)cc2C(=O)N([C@@H](C)CO)C[C@@H]1C	7	15
CO[C@H]1CN(C)C(=O)c2cc(NC(=O)C3CCC3)ccc2OC[C@H](C)N(CC2CCCCC2)C[C@@H]1C	3	-9
C[C@H](CO)N1C[C@H](C)[C@@H](CN(C)C(=O)Nc2ccc3c(c2)OCO3)Oc2c(NC(=O)Nc3cccc4ccccc34)cccc2C1=O	23	18
Cc1noc(C)c1NC(=O)N(C)C[C@@H]1OCCCC[C@@H](C)Oc2ccc(NS(=O)(=O)c3cccs3)cc2C(=O)N([C@H](C)CO)C[C@H]1C	12	28
C[C@@H]1CN([C@H](C)CO)C(=O)c2cc(NC(=O)NC3CCCCC3)ccc2O[C@@H](C)CCCCO[C@H]1CN(C)Cc1ccc(C(=O)O)cc1	-6	9

A portion of the library, so the mix of outcomes need not match the whole.
